Compound activity from PubChem.
Rango complex inh: prevents formation of the Rango-importin beta complex; Rango CFP/YFP FRET sensor + importin beta, 45 min; Potency, µM (top dose mostly 92.2 µM), for the others: top-dose inhibition of complex formation; 340,000 tested, 0.031% active; AID 540263; active = rising FRET ratio curve, often small or poorly fitted; inconclusive = mostly compound fluorescence or quenching in the first reads; inactive = flat curves in all reads;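 further: potency means the concentration at half of the fitted maximal effect; 0% = DMSO wells and 100% = buffer wells lacking importin beta; nearly all actives have a fitted effect of over 15% in size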
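Inhibition scored from the CFP 486 nm/YFP 530 nm FRET ratio 45 min after adding 0.125 microM importin beta to 50 nM Rango biosensor preincubated 5 min with compound (room temperature, PBS with DTT, Tween-20, BSA). No-importin wells as positive control.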
GLA inh pH 4.5: blocks human alpha-galactosidase A at pH 4.5 | P06280 | purified enzyme, 4-MU-alpha-Gal fluorescence, pH 4.5 | activity change, negative = inhibition, % at 105 µM | 230,000 tested, under 10 active; inconclusive = small, poorly fitted or top-dose-only inhibition, or a rising curve; inactive = flat fitted curve, though single readings scatter; no compound was filed as active;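 further: 0% = full activity with enzyme and -100% = basal without enzyme; dose as in the result columns while the protocol names 77 µM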
Target sequence (P06280 whole entry, looked up): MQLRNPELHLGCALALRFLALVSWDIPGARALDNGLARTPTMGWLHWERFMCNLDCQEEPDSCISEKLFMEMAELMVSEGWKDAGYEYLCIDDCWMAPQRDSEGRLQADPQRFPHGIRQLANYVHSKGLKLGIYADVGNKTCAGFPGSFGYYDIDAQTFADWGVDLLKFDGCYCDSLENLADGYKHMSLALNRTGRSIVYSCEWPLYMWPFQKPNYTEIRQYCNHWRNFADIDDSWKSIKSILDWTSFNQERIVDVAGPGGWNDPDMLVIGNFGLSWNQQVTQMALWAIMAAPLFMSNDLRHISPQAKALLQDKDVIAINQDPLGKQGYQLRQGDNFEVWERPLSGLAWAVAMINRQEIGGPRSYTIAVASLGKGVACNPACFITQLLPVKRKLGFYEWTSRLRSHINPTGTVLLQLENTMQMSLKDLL
miR-21 reporter: raises the signal of a miR-21 reporter; HeLa miR-21 FLuc reporter, luciferase, 48 h; Potency, µM (titrated, usually from 38.3 µM), for inactives: at the top dose reporter change, positive = more light; 340,000 tested, under 10 active; AID 2288; active = well fitted rising curve with a large enough effect; inconclusive = small, poorly fitted or top-dose-only effect; inactive = no such curve, though single readings can be large or run the other way;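 further: % of control where 0% means no effect; miR-21 action dims this reporter so a rising signal means less miR-21 action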
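Compounds were titrated across several concentrations (up to approximately 40 uM) and incubated 48 hours with HeLa miR-21-FLuc reporter cells (miR-21 target sequence downstream of FLuc, endogenous miR-21). Readout was firefly luciferase luminescence after lytic detection reagent.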
Rango release inh: inhibition of RanGTP-driven Rango-importin beta dissociation. O95149+P62826. Biochemical FRET Rango-importin beta, RanGTP-induced dissociation. Potency, µM (top dose mostly 46.1 µM), without a hit: top-dose activity change, negative = inhibition. 340,000 tested, 0.071% active. AID 540253; active means falling FRET ratio curve, often poorly fitted, with flat reads before Ran was added; inconclusive means other falling curves, or compound fluorescence or quenching; inactive means flat or rising ratio curve;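 further: potency means the concentration at half of the fitted maximal effect; % of control where 0% means no effect; nearly all actives have a fitted effect of over 45% in size; -100% = wells without RanGTP and RCC1; the record marks most hits as doubtful in a second field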
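Quantitative HTS using a FRET biosensor: 0.1 uM Rango, 0.25 uM importin beta, 0.6 uM Ran, 2 mM GTP, 0.2 uM RCC1 final, PBS with DTT, Tween-20 and BSA. Post-read taken 45 min after Ran addition.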
Numbers without * were called inactive; ? = inconclusive; nt = not tested or not shown; & = joins results of further samples; [ ] = remark or other dose. A portion of the library; the hit share may differ from the screen's.

mol	Rango complex inh	GLA inh pH 4.5	miR-21 reporter	Rango release inh
O=c1n(S(=O)(=O)c2cccc3cccnc23)c2ccccc2n1S(=O)(=O)c1cccc2cccnc12	-3.3%	3	-2%	-3%
COc1ccc(C2NCCc3cc(OC)c(OC)cc32)cc1OC (centres undefined)	-1.5%	3	0%	-14%
Cc1cc(NC(=O)CSC2=NS(=O)(=O)c3cc(Cl)ccc3N2)no1	-3.7%	nt	nt	11%
Cc1cccn2cc(CCNC(=O)c3cccs3)nc12	0.2%	4	-21%	?
O=C(NC(=S)N1CCN(C/C=C/c2ccccc2)CC1)c1cccnc1	0.3%	1	0%	5%
COc1cc2nc(N3CCNCC3)nc(N)c2cc1OC	10%	8	-2%	7%
CCC(=O)c1cn(CC(=O)O)c2ccccc12	8.3%	11	0%	0%
Cc1ccc(C(=O)Nc2oc(-c3ccccc3)cc2C#N)cc1	?	0	-8%	-4%
O=c1onc(-c2ccccc2)n1-c1cc(Cl)cc(Cl)c1	?	nt	nt	-7%
CCOC(=O)c1c(-c2cccs2)csc1NC(=O)CC(C)C	1.2%	5	2%	2%
CCCc1c(C(=O)N/N=C/C(C)=C/c2ccco2)nnn1-c1nonc1N	0.0%	nt	-6%	-9%
Cc1cccc(-c2n[nH]c(=S)n2/N=C/C=C/c2ccco2)c1	-4.9%	-6	-9%	1%
O=C(CC1(O)C(=O)N(Cc2ccc3c(c2)OCO3)c2ccccc21)c1ccccc1 (centres undefined)	-6.3%	-3	-11%	16%
Cc1ccc(NC(=O)Cn2ncc3ccccc32)c(Cl)c1	8.3%	nt	-51%	1%
CCn1c2ccccc2c2cc([N+](=O)[O-])ccc21	?	-6	-8%	11%
O=C(O)C1CCCN1C(=O)Oc1ccccc1 (centres undefined)	-2.1%	-4	-1%	5%
O=C(CN1C(=O)NC2(CCCCC2)C1=O)N1CCN(S(=O)(=O)c2ccc(F)cc2)CC1	0.0%	nt	nt	4%
CCOc1ccc(-c2nonc2NC(=O)c2ccco2)cc1	-2.6%	nt	-4%&-1%	0%
Nc1ccc2nc(-c3cccs3)[nH]c2c1	-1.5%	19	-60%	-22%
CC(C)(C)C(=O)Nc1c2c(nc3c1CCC3)CCCC2	4.7%	-2	-6%	-18%
O=C(Cn1cnc(S(=O)(=O)N2CCCC2)c1)Nc1ccccc1	-1.2%	nt	-3%&-2%	-23%
O=C1c2ccccc2C(=O)N1CCCCSc1nnc2c(Cl)cc(Cl)cn12	-3.9%	-2	-6%	-30%
COc1ccccc1C(=O)Nc1ccc(Oc2ncnc3sc(-c4ccccc4)cc23)cc1	0.9%	4	-4%	6%
CCOCc1c(C(=O)OCC(=O)Nc2ccc(C)c(S(=O)(=O)N(C)C)c2)oc2ccccc12	0.3%	-11	-4%	10%
Cc1ccc(NC2CC(=O)N(c3ccc(C)cc3)C2=O)cc1 (centres undefined)	-3.4%	1	-17%	4%
CCOCCCNS(=O)(=O)c1ccc2c(c1)OCCO2	-0.8%	-14	-5%	-1%
Cc1cccn2c(=O)nc(SCC(=O)N3CCCCC3)nc12	7.0%	nt	nt	0%
O=C1CN(S(=O)(=O)c2ccc(F)cc2)CC(=O)N1CCc1ccccc1	nt	-4	2%	nt
CCN1C(=O)/C(=C\c2ccncc2)SC1=S	1.4%	-12	-2%	-9%
COC(=O)C1=C(C)Nc2ncnn2C1c1ccc(OC(=O)c2ccccc2)cc1 (centres undefined)	-4.3%	2	-1%	2%
Nc1nc2cc(S(=O)(=O)N3CCOCC3)ccc2o1	-4.3%	nt	nt	-2%
C/C(CC(=O)Nc1ccc2c(c1)OCCO2)=N\NC(=O)COc1ccc(Cl)c(C)c1	?	nt	-8%	-1%
O=C(C1CCCO1)N1CCN(C(=S)Nc2ccccc2Cl)CC1 (centres undefined)	-2.6%	2	-2%	-7%
O=C(Nc1ccc2nn(-c3ccccc3)nc2c1)c1ccco1	2.1%	-7	-60%	2%
NC(=S)N/N=C1/CCSc2ccc3ccccc3c21	0.5%	-14	8%	-12%
N#CCC(=O)Nc1ccc(C(=O)OCC(=O)Nc2ccc3ccccc3c2)cc1	?	nt	nt	-26%
C=CCc1ccccc1OCC(=O)N/N=C/c1ccc(OC(C)=O)cc1OC(C)=O	-5.6%	-3	23%	?
O=C(O)CCC(=O)c1ccc2c(c1)CCCC2	-4.5%	7	3%	1%
Cc1nc2ncnn2c(C)c1CCC(=O)N1CCOCC1	5.4%	1	0%	9%
C=CCC(NCCCO)c1cccc(OC)c1OC (centres undefined)	0.1%	-5	1%	-9%
C/C(Cl)=C/Cc1c(C)[nH]c2c(ccc3ccccc32)c1=O	7.5%	nt	4%	-3%
COc1ccc(CNS(=O)(=O)c2ccc(F)c(C(=O)Nc3ccccc3OC)c2)cc1	-2.6%	-22[21.1 µM]	0%	1%
O=S(=O)(c1ccccc1)N1CCC(=NO)CC1	-0.3%	1	-3%	-20%
NC(=O)C1(Nc2ccc(-c3ccccc3)cc2)CCCC1	1.0%	nt	nt	0%
CCc1ccccc1NC(=O)C1CCCN(c2nccc(C)n2)C1 (centres undefined)	-3.3%	nt	-2%	8%
CC(C)C(=O)O/N=C(\N)c1ccccn1	0.0%	-1	-12%	0%
CCn1ncc(Cl)c1C(=O)Nc1cc([N+](=O)[O-])ccc1OC	2.8%	-4	-15%	12%
O=C(COC(=O)c1cccc(S(=O)(=O)N2CCOCC2)c1)Nc1ccc(Cl)cn1	-0.9%	nt	nt	0%
Cc1cc(C)n(CC(O)Cn2c3ccc(Cl)cc3c3cc(Cl)ccc32)c(=O)n1 (centres undefined)	9.1%	2	14%	4%
CC1(c2nnc(-c3cccc(Cl)c3)o2)CC(c2ccc(F)cc2)=NO1 (centres undefined)	0.6%	nt	nt	-8%
O=c1c(-c2ccccc2)c(O)c2cccc3c2n1CCC3	-0.2%	2	-3%	7%
O=C(OCc1nnc(-c2ccccc2)o1)C12CC3CC(CC(Br)(C3)C1)C2	2.1%	-1	-40%	2%
O=C(NCCN1CCCCC1)c1ccc(Oc2cc(Cl)cc(Cl)c2)o1	-1.8%	-9	-7%	16µM*
CN(C)Cc1c(O)ccc2occ(C(O)c3ccccc3)c12 (centres undefined)	-2.5%	-3	-14%	23%
Cc1cc(C(=O)NC2CCCN(Cc3ccccc3F)C2)no1 (centres undefined)	-0.2%	nt	-5%	20%
O/N=C1\CCCC\C1=C/c1ccccc1	3.4%	3	-22%	6%
CCOc1ccc(OCc2cccc(C(=O)O)c2)cc1	-5.5%	10	16%	-2%
CC1(C)CC(=O)C2=C(C1)NC1=C(C(=O)c3ccccc31)C2c1ccccc1 (centres undefined)	-4.6%	3	17%	-15%
O=C(N[C@@H](c1ccccc1)[C@@H]1C[C@H]1C(=O)O)OCc1ccccc1	-4.1%	10&1	-10%	-2%
COP1(=O)C[C@@H](O)[C@@H](O)[C@@H](COCc2ccccc2)O1 (some centres undefined)	0.6%	-7	-2%	14%

The results go on.
| Compound | Rango complex inh | GLA inh pH 4.5 | miR-21 reporter | Rango release inh |
| --- | --- | --- | --- | --- |
| COc1ccc(CC(=O)N/N=C(\C)c2cccnc2)cc1OC | 0.6% | nt | -5% | 1% |
| CN(CC(=O)NCc1ccccn1)S(=O)(=O)c1ccc(F)cc1 | -0.1% | -1 | -2% | 11% |
| Fc1cc(F)c(F)c(SCn2cc(Br)cn2)c1F | -0.5% | nt | nt | -7% |
| CN(C)c1ccc(NS(=O)(=O)c2ccc(-c3csnn3)cc2)cc1 | 0.7% | 3 | 8% | 1% |
| COc1ccc(OCCN(C)Cc2c(O)ccc3ccccc23)cc1 | -0.3% | nt | -1% | -7% |
| COc1cccc2sc3cc(NCC[C@@H]4CCCN4C)ccc3c(=O)c12 | ? | nt | nt | ? |
| COc1ccc(OCCc2nnc(N)s2)cc1 | 4.2% | -18 | -6% | 13% |
| COCCCN(C(=O)Cc1ccc(S(=O)(=O)N2CCOCC2)s1)c1c(N)n(Cc2ccccc2)c(=O)[nH]c1=O | ? | nt | nt | 0% |
| Cc1cc(C)c(C)c(S(=O)(=O)N2CCN(C(=O)c3cc(=O)[nH]c4ccccc34)CC2)c1C | -1.7% | 4 | -3% | 4% |
| COc1ccc(OC)c(CCNC(=O)CCn2nc(C)c3c(C)n(-c4ccccc4)nc3c2=O)c1 | 3.0% | nt | -3% | -9% |
| O=C(NCc1ccccc1)c1cnc(-c2ccccn2)nc1C(F)(F)F | ? | -3 | -19% | -14% |
| O=c1[nH]n(-c2ccccc2)c(=O)cc1Cl | -0.2% | nt | nt | 3% |
| CC(=O)N1C(=O)NC(c2ccccc2)=C([N+](=O)[O-])C1c1ccccc1 (centres undefined) | 0.2% | nt | 4% | 9% |
| O=C(O)c1ccccc1SCc1ccc2c(c1)OCO2 | -2.1% | 8 | -15% | -8% |
| COc1ccc(NC(=O)CN(C)S(=O)(=O)c2ccc3c(c2)CCCN3C(C)=O)cc1 | -0.8% | nt | 3%&-6% | -9% |
| CCC(=O)Nc1nc2c(s1)COc1ccccc1-2 | ? | 4 | -4% | 8% |
| COc1cc(C(=O)OCC(=O)c2ccc(S(=O)(=O)N3CCCCC3)cc2)cc(OC)c1OC | 0.5% | nt | nt | -3% |
| O=C(N/C(=C/c1ccc(F)cc1)C(=O)N1CCOCC1)c1ccccc1 | -0.9% | nt | 3% | -4% |
| CN1/C(=C\P(=O)(N(C)C)N(C)C)C(C)(C)c2ccccc21 | -2.1% | 4 | ? | 4% |
| CC(=O)N1c2ccc(S(=O)(=O)NCC3CCC(C(=O)NC4CCCCC4)CC3)cc2CC1C (centres undefined) | 0.2% | nt | 16% | 0% |
| O=C(Oc1ccc(C(=S)N2CCOCC2)cc1)c1cccc(Cl)c1 | -0.4% | nt | 0% | -6% |
| COCc1cc(Sc2ccc(Cl)cc2)nc(-c2ccccc2)n1 | -1.2% | 3 | -2% | -1% |
| CN(C)c1ccc(C(=O)N/N=C/c2cc(Br)cc(Br)c2O)cc1 | ? | 0 | -2% | ? |
| COc1ccc(N2C(=O)C3CCCN3C2c2ccc(C)o2)cc1Cl (centres undefined) | ? | 1 | -19% | -13% |

Single records (already shown):
COc1cc(C(=O)OCC(=O)c2ccc(S(=O)(=O)N3CCCCC3)cc2)cc(OC)c1OC as listed: Rango complex inh = 0.5%; GLA inh pH 4.5 = nt; miR-21 reporter = nt; Rango release inh = -3%
CN(C)c1ccc(C(=O)N/N=C/c2cc(Br)cc(Br)c2O)cc1 as listed: Rango complex inh = ?; GLA inh pH 4.5 = 0; miR-21 reporter = -2%; Rango release inh = ?

Looked up by structure from the list above:
| Compound | Rango complex inh | GLA inh pH 4.5 | miR-21 reporter | Rango release inh |
| --- | --- | --- | --- | --- |
| O=C(Oc1ccc(C(=S)N2CCOCC2)cc1)c1cccc(Cl)c1 | -0.4% | nt | 0% | -6% |
| CN1/C(=C\P(=O)(N(C)C)N(C)C)C(C)(C)c2ccccc21 | -2.1% | 4 | ? | 4% |

Next part:
| Compound | Rango complex inh | GLA inh pH 4.5 | miR-21 reporter | Rango release inh |
| --- | --- | --- | --- | --- |
| C=CCN1C=C(C(C)=O)C(=O)CC1 | 3.4% | nt | nt | 10% |
| CCOC(=O)Cc1csc(NC(=O)Nc2ccc(OC(F)(F)F)cc2)n1 | -0.2% | 5 | 21% | -1% |
| CC(C)CNC(=O)CN(c1ccccc1)S(=O)(=O)c1ccccc1[N+](=O)[O-] | -0.4% | nt | 2% | -2% |
| CN(C)CCCNCCCCNC(=O)/C=N/O | -4.2% | -6 | 0% | -18% |
| Cc1ccccc1-n1ncc2c1CC(C)(C)CC2NC(=O)CCC1=NNC(=O)CC1 (centres undefined) | 4.6% | nt | -1% | -26% |
| COCCNC(=O)C1Cc2cc(S(=O)(=O)N3CCCC3)ccc2N1C(C)=O (centres undefined) | -1.4% | nt | 1% | 6% |
| O=C1NC(NS(=O)(=O)c2ccc(Cl)cc2)(C(F)(F)F)C(=O)N1CCc1ccccc1 (centres undefined) | -2.1% | -2 | 1% | 14% |
